# TRHR enhancer = allosteric enhancers of human TRH receptor. P34981. TRHR cells, fluo-8 calcium fluorescence, EC20 TRH enhancement. enhancement, % at 2 µM. actives 0.66% (n = 360,000). AID 493056; in the data active means enhancement above about 30%; further: 0% is about no effect
#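 TRHR-expressing cells loaded with fluo-8 calcium dye were read kinetically (ex 480/em 530) during compound addition, then stimulated with an EC20 of TRH (10 nM final). Enhancement of the Gq-mediated intracellular calcium response was scored.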
# PI4K2A inh = blocks human PI4K2A kinase activity. Q9BTU6. purified PI4K2A, ADP-Glo luminescence, 1 h; active compounds read low. activity change, negative = inhibition, % at 76.9 µM. actives 0.13% (n = 420,000). AID 1346378; in the data active means activity change below about -50%; inconclusive means mostly about -30% to -49%;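 further: -100% = wells without enzyme as full effect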
#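 Compounds are screened against recombinant PI4K2A using PI as substrate and ATP, the latter dispensed at 300 microM. Reactions run one hour at ambient temperature before ADP-Glo detection; full inhibition defined by wells lacking enzyme.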
# D2 agonist = agonists of human D2 dopamine receptor. HEK293 T-REx D2 cells, calcium flux agonist mode. activation, % at 2 µM. actives 0.53% (n = 340,000). AID 485358;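 active means activation over 3 SD above normal in the single-dose calcium agonist read, cut at about 30% in these data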; further: 0% is about no effect
# Target sequence (P14416 whole entry, looked up): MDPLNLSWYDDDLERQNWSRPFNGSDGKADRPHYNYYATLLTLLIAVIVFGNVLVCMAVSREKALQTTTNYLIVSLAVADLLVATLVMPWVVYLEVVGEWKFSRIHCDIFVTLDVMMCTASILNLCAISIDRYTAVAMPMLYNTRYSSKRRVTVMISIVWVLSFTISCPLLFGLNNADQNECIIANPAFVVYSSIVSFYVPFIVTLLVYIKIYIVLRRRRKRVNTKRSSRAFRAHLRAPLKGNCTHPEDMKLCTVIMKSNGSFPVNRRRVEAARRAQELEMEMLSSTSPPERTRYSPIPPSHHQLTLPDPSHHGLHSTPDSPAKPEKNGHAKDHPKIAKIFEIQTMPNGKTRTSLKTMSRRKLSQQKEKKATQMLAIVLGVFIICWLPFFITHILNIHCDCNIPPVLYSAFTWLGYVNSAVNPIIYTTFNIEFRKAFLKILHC
#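 Tetracycline-induced HEK293 Trex cells with D2 receptor force-coupled to calcium signaling, plated overnight at 30 C and loaded with no-wash calcium dye. Calcium flux read kinetically for 180 s after compound addition; responses flag agonists.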
# D2 antag = antagonists of human D2 dopamine receptor. P14416. HEK293 TREx D2 cells, calcium flux, dopamine EC80. inhibition, % at 10 µM. actives 2% (n = 340,000); in the data active means inhibition above about 30%; further: 0% is about no effect
#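 Cells plated overnight at 30 C with tetracycline; no-wash calcium dye, 30–90 min RT; 10 s baseline; compound pinned; 180 s read; EC80 dopamine added; another 180 s read.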
# mIDH1 inhibitor = inhibitors of human mutant IDH1 R132H. Potency, µM (highest dose often 76.6 µM), for inactives: top-dose activity change, negative = inhibition, most hits filed as inhibitors. IDH1-R132H enzyme, NADPH consumption, diaphorase/resazurin fluorescence. actives 0.093% (n = 390,000). O75874; further: potency means the concentration at half of the fitted maximal effect; on the % scale 0 is the no-effect control and ±100 the full control effect; nearly all actives have a fitted effect of over 65% in size
#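 IDH1-R132H (0.5 ug/mL) preincubated 30 min with compound, then NADPH (0.016 mM) and alpha-KG (2 mM) added; 80 min at RT, pH 7.5. Remaining NADPH coupled via diaphorase/resazurin to fluorescence (540/590 nm); concentration-response curves normalized to no-enzyme control.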
# TRHR ag = TRH receptor (human) agonism. activation, % at 2 µM. P34981. actives 0.18% (n = 360,000). TRHR cells, calcium flux fluo-8, FDSS agonist mode; in the data active means activation above about 30%; further: 0% is about no effect
#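 Agonist-mode FDSS calcium read (Ex 480/Em 530, 1 s cycles) in 1536-well TRHR cells with fluo-8 dye, after 10-cycle baseline and 23 nL compound addition; TRH at EC20 (10 nM final) added afterwards for the enhancer phase.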
# rTrxR1 inhibitor = rat TrxR1 inhibition | O89049 | AID 588453 | actives 1% (n = 390,000) | recombinant rTrxR1, NADPH fluorescence consumption, selenite substrate | Potency, µM (titrated, usually from 114 µM), for the others: top-dose activity change, negative = inhibition, actives largely listed as inhibitors; further: potency means the concentration at half of the fitted maximal effect; on the % scale 0 is the no-effect control and ±100 the full control effect; nearly all actives have a fitted effect of over 65% in size
# Target sequence (O89049 whole entry, looked up): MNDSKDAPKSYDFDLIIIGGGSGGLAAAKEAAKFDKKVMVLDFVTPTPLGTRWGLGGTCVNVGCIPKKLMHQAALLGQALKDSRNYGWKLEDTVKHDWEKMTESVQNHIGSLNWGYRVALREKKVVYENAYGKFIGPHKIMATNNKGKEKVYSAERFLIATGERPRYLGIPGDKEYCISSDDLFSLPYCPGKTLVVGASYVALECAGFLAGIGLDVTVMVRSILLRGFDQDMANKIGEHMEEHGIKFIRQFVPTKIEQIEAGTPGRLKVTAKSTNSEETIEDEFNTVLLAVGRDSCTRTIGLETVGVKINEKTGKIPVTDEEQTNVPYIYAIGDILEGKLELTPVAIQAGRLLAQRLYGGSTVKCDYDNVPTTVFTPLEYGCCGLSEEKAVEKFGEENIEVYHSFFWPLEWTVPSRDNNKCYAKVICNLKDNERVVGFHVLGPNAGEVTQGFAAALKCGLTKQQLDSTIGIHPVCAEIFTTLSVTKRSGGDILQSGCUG
#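 Rat TrxR1 (90 nM in the dispensed reagent) was pre-reduced with 400 uM NADPH for 5 min at room temperature, then incubated with compound for 15 min. After 400 uM selenite was added, NADPH fluorescence (Ex 340/Em 450 nm) was followed for 8 min.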
# TrxR1 substrate = is turned over as a substrate by rat TrxR1. O89049. purified TrxR1 substrate turnover, NADPH consumption readout. Potency, µM (highest dose often 114 µM), for inactives: at the highest dose activity change, negative = substrate turnover. actives 0.01% (n = 390,000). AID 588456; further: potency means the concentration at half of the fitted maximal effect; on the % scale 0 is the no-effect control and ±100 the full control effect; nearly all actives have a fitted effect of over 50% in size
#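 Rat TrxR1, dispensed at 90 nM, was prereduced with 400 uM NADPH (final) for 5 min at ~22 deg C, then incubated with compound 15 min before 400 uM selenite. A first-read NADPH fluorescence drop versus no-compound background flagged substrates.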
# * = called active by the depositor; ? = inconclusive; . = not tested or not shown; & = joins results of further samples; [ ] = another dose, or the depositor's remark. Unless noted, the call rests on the fitted dose curve; in most records, active means well fitted inhibition curve with a large enough effect; inconclusive means small, poorly fitted or top-dose-only effect; inactive means no such curve, though single readings can be large or run the other way. Only part of the results is shown (hit frequency here may not be typical).
Compound	TRHR enhancer	PI4K2A inh	D2 agonist	D2 antag	mIDH1 inhibitor	TRHR ag	rTrxR1 inhibitor	TrxR1 substrate
CCOC(=O)/C(C#N)=C(C)/C=C1\Sc2ccccc2N1CC	-5	9	15	-5	4%	33*	-5%[57.1 µM]	6%[57.1 µM]
CC(C)(C)C1CCc2c(sc3nc(-c4cc5cc(Br)ccc5oc4=O)[nH]c(=O)c23)C1 (configuration not stated)	7	-1	-0.7	.	39%[activator]	0.1	66%[activator]	31%
COc1ccc(Cl)cc1C(=O)Nc1ccccc1N1CCCCC1	-6	-1	0.7	24	-7%	0.5	21%	1%
Cc1cc(C(F)(F)F)n2nc(-c3cccs3)cc2n1	-2	0	0.4	4	6%	0.2	12%[57.1 µM]	-20%[57.1 µM]
Cc1nn2c(-c3ccccc3)ccnc2c1-c1ccccc1	1	-1	0.8	-2	4%	-1.0	17%	-1%
CCN(CC)CCOCCOc1ccc(Cl)c2ccccc12	7	5	0.2	1	1%	0.5	-14%	-10%
CCOC(=O)c1ccc(-c2ccc(/C=C(\C#N)C(=O)Nc3ccc(OCC)cc3)o2)cc1	0	-1	0.1	.	.	0.0	20%	5%
Cc1ccc(S(=O)(=O)Nc2nc3n(n2)C(c2ccc(F)cc2)C=C(c2ccccc2)N3)cc1 (configuration not stated)	9	-2	2.0	.	?	0.2	-2%	-10%
CC(=O)Nc1ccc(OCC(O)CN2CCN(c3ccc(Cl)cc3)CC2)cc1 (configuration not stated)	-1	0	1.0	40*	7%	3.7	7%	-3%
CCN(C(=O)c1c(C)oc2ncnc(N3CCCCC3)c12)c1cc(C)ccc1C	-12	-1	-1.6	.	-12%	-0.4	13%	0%
COC(=O)Cn1c(CN2CCc3ccccc3C2)nc2c1c(=O)n(C)c(=O)n2C	2	-9	1.0	2	0%	0.2	-8%[57.1 µM]	18%[57.1 µM]
COc1ccc(Nc2cc(NCCCO)c([N+](=O)[O-])c3nonc23)cc1	2	-6	-0.6	4	4%	-0.9	4%	-14%
Fc1ccc(-c2csc(-c3cccnc3)n2)cc1F	0	6	-0.7	7	3%	-1.2	33%	9%
COC(=O)c1ccc(C2NC(=S)N(c3ccccc3)C(C)=C2C(=O)Nc2ccccc2OC)cc1 (configuration not stated)	0	-1	0.4	9	6%	0.9	13%	0%
C[C@H](NC(=O)c1nc[nH]c1C(=O)NC1CCN(C(=O)OC(C)(C)C)CC1)C(=O)OC(C)(C)C	-2	-6	0.1	-8	1%[38.3 µM]	-0.7	16%	6%
Cc1ccc(-c2c(NCCc3ccccc3)c(=O)c2=O)cc1	-5	7	-0.1	9	-6%	-0.2	-3%[57.1 µM]	3%[57.1 µM]
COCCCNC(=S)N1CCN(C(=O)C(=O)Nc2ccc(C(=O)OC)cc2)CC1	7	-4	-0.3	-1	8%	-0.1	-8%	-10%
O=C(Cn1cnc(S(=O)(=O)N2CCCC2)c1)Nc1ccccc1	5&3	0&-4	1.2&-0.7	-3	4%&0%	0.3&1.3	23%	6%
NC(=O)C(c1ccc(Cl)cc1)c1ccc(Sc2ccccc2)nn1 (configuration not stated)	-1	-14	0.8	-15	0%	-0.1	8%	-12%
COc1ccc(Br)cc1/C=N/n1c(C)nnc1C	-5	-3	0.0	4	-3%	-0.1	-30%[57.1 µM]	5%[57.1 µM]
COC(=O)[C@H](C(C)C)N(Cc1ccccc1)S(=O)(=O)CCNC1CCCC1	.	0	.	.	10%	.	-7%	3%
Cc1nc(N2CCOCC2)c2c(C(=O)N(C)c3ccccc3)c(C)oc2n1	7	4	-0.4	.	-16%	0.9	19%	-2%
COCCCNC(=O)C(C)N1c2cccc3cccc(c23)S1(=O)=O (configuration not stated)	-3	2	-0.2	-8	-1%	-0.1	11%[57.1 µM]	2%[2.29 µM]
Cc1ccc(OC(=O)c2ccc3nc(C)sc3c2)cc1	-4	1	.	.	0%	-0.1	8%[57.1 µM]	7%[57.1 µM]
CC(C)Cn1cc(NC(=O)N2CCN(c3ccc(F)cc3)CC2)c2ccccc2c1=O	12	-11	-0.7	.	-13%	-1.0	11%	9%

# 2 compounds from above, showing only D2 antag and PI4K2A inh.
mol | D2 antag | PI4K2A inh
COCCCNC(=O)C(C)N1c2cccc3cccc(c23)S1(=O)=O (configuration not stated) | -8 | 2
Cc1ccc(OC(=O)c2ccc3nc(C)sc3c2)cc1 | . | 1

# Entries above shown as hits in TRHR ag.
Molecule | TRHR enhancer | PI4K2A inh | D2 antag | TRHR ag | rTrxR1 inhibitor | TrxR1 substrate
CCOC(=O)/C(C#N)=C(C)/C=C1\Sc2ccccc2N1CC | -5 | 9 | -5 | 33* | -5%[57.1 µM] | 6%[57.1 µM]

# Other results:
Compound	TRHR enhancer	PI4K2A inh	D2 agonist	D2 antag	mIDH1 inhibitor	TRHR ag	rTrxR1 inhibitor	TrxR1 substrate
CCn1nc(C(=O)NNS(=O)(=O)c2cc(/C=C/C(=O)O)cc(OC)c2OC)c2ccccc2c1=O	.	-2	.	.	2%	.	4%[11.4 µM]	2%[11.4 µM]
COc1ccc(C2C=C(c3ccccc3)Nc3nc(NS(=O)(=O)c4ccc(Cl)cc4)nn32)cc1 (configuration not stated)	3	-2	1.0	.	?	0.6	12%	4%
N#Cc1c(N)n(CCOC(=O)c2ccc(Cl)cc2)c2nc3ccccc3nc12	8	5	0.4	-5	3%	-1.3	29%[57.1 µM]	47%[activator][57.1 µM]
O=C(O)c1nccnc1C(=O)Nc1ccc(Cl)cc1Cl	1	-1	1.0	-9	-1%	-0.3	14%	-5%
O=C(NCC1CC1)C1(S(=O)(=O)c2ccccc2)CC=CC1	-4	-3	-0.2	5	10%	0.8	8%	-3%
CCOC(=O)/C(C#N)=C/c1ccc(-c2ccc(C)cc2)o1	5	3	0.9	.	-11%	-1.4	8%	4%
COc1cccc(C2C(C(=O)Nc3cccnc3)=C(C)Nc3nc(SCc4ccccc4)nn32)c1 (configuration not stated)	3	-7	-0.3	.	16%	0.7	16%[2.29 µM]	2%
Cc1cc(N2CCN(c3ccc(F)cc3)CC2)nc(-c2ccccc2)n1	1	-1	0.3	-23	8%	0.4	19%	-7%[57.1 µM]
Cc1[nH]n2c(=O)c3c(nc2c1-c1ccc(F)cc1)CCCC3	-6	3	-0.9	36*	-9%	-0.9	8%[57.1 µM]	-4%
Cc1ccc2cc(C=C(C#N)C#N)c(N3CCCCC3)nc2c1	-1	19	0.1	2	1%	-0.4	1µM*	-5%
Cc1ccc(NC(=O)c2ccc(Br)cc2)c(C(=O)c2ccccc2)c1	4	1	-2.4	.	-12%	1.0	5%	1%
COC(=O)c1cccc(CN2C(=O)SC(Nc3ccc(C)cc3)C2=O)c1 (configuration not stated)	-3&-5	3&0	-0.9	8	1%&4%	-0.8&0.0	-22%&9%	-9%&2%
CCC(=O)/C=C1\Sc2ccc(OC)cc2N1CCO	-4	1	0.0	1	0%	0.1	-20%	-19%
CCn1c(=N)c(C(=O)NC2CCCC2)cc2c(=O)n3ccccc3nc21	-17	2	1.1	.	-7%	-0.4	94%[activator]	761%[activator]
CCOC(=O)/C(C#N)=C/c1ccc(-c2ccccc2)o1	-2	1	0.2	.	5%	3.0	-13%	-1%
COc1cccc(-c2nn(C)c3sc(C(=O)NCc4ccco4)cc23)c1	-2	1	0.1	36*	5%	-0.3	47%[activator]	73%[activator]
COc1ccccc1C1/C(=C(/O)c2ccccc2)C(=O)C(=O)N1CC(C)O (configuration not stated)	4	-3	0.3	-6	6%	0.7	-15%	-14%
O=C(Nc1cc(-c2cccc(Cl)c2)nn1-c1ccccc1)c1ccccc1F	-1	-1	0.9	.	0%	0.4	27%[57.1 µM]	1%[57.1 µM]
COc1cccc(C=Nc2ccc3c(c2)OCCO3)c1O	-5	-63*	1.1	3	-9%	-0.2	-17%	-13%
CCN(CC)c1ccc2cc(-c3nc4sc5c(c4c(=O)[nH]3)CCC(C(C)(C)C)C5)c(=O)oc2c1 (configuration not stated)	10	-4	-0.7	.	-20%	0.0	41%[11.4 µM]	9%[11.4 µM]
CC(=O)Cc1nsc(NC(=O)c2ccc(-c3ccc(F)cc3)o2)n1	-2	-4	1.8	3	6%	1.1	-21%	45%[activator]
COc1cc2c(cc1OC)-c1cc(N3CCCc4ccccc43)nc(=O)n1CC2	15	-3	-1.5	18	-4%	-1.9	11%	8%
COc1cccc(CNC(=O)N[C@@H](CC(C)C)C(=O)O)c1	-6	5	0.4	5	4%	0.2	12%[57.1 µM]	4%
N#CC(c1ccccc1F)(c1ncc(C(F)(F)F)cc1Cl)N1CCOCC1 (configuration not stated)	.	-9	.	.	13%	.	22%	5%
Cc1ccoc1C(=O)NCCNc1ccc(Cl)cc1[N+](=O)[O-]	19	1	-0.2	-2	2%	1.6	-10%	-11%

# Other results:
Compound	TRHR enhancer	PI4K2A inh	D2 agonist	D2 antag	mIDH1 inhibitor	TRHR ag	rTrxR1 inhibitor	TrxR1 substrate
COc1cccc(Cn2cccc(NC(=O)NCc3ccccc3)c2=O)c1	-3	-5	1.5	5	-13%	-0.2	27%	5%
CCN(CC)c1ccc2cc(C(N)=O)c(=N)oc2c1	1	3	44*	-10	3%	25	4%[57.1 µM]	-1%[57.1 µM]
CN(C)c1oc(/C=C/c2ccccc2)nc1C#N	17	-4	-0.6	9	4%	-0.8	-24%	.
O=C(NCc1ccco1)c1cc2nc(-c3cccs3)cc(C(F)(F)F)n2n1	2	3	-2.4	-21	15%	-0.5	-3%	40%[activator]
CCc1nn2c(-c3ccccc3OC)ccnc2c1-c1ccc(F)cc1	-6	-9	-0.1	.	5%	-1.0	9%	-9%
CS(=O)(=O)c1ccc(C(=O)OCC(=O)NC(=O)Cc2ccccc2)cc1	-1	3	1.0	6	-5%	0.5	-4%[57.1 µM]	-4%[57.1 µM]

# Random excerpt: 3 records from the list
Compound	TRHR enhancer	PI4K2A inh	D2 agonist	D2 antag	mIDH1 inhibitor	TRHR ag	rTrxR1 inhibitor	TrxR1 substrate
CCN(CC)c1ccc2cc(C(N)=O)c(=N)oc2c1	1	3	44*	-10	3%	25	4%[57.1 µM]	-1%[57.1 µM]
CCc1nn2c(-c3ccccc3OC)ccnc2c1-c1ccc(F)cc1	-6	-9	-0.1	.	5%	-1.0	9%	-9%
CN(C)c1oc(/C=C/c2ccccc2)nc1C#N	17	-4	-0.6	9	4%	-0.8	-24%	.

# High-throughput results: PubChem BioAssay, National Center for Advancing Translational Sciences (NCATS)
